Screens (PubChem)
Vaccinia Venus: qHTS for Stage-Specific Inhibitors of Vaccinia Orthopoxvirus: Venus Reporter Primary qHTS | Vaccinia virus Venus reporter expression, fluorescence | Potency, µM (doses to about 36.5 µM), for the others: at the top dose activity change, negative = inhibition, hits mostly inhibitors | actives 0.46% (n = 330,000); active means well fitted inhibition curve with a large enough effect; inconclusive means small, poorly fitted or top-dose-only effect; inactive means no such curve, though single readings can be large or run the other way; tested in A549 cells; further: nearly all actives have a fitted effect of over 30% in size; inactives centre near -10
VACV mCherry inh: qHTS for Stage-Specific Inhibitors of Vaccinia Orthopoxvirus: mCherry Reporter Primary qHTS; Vaccinia virus mCherry reporter infection, fluorescence; about a quarter of the inactives have no number; Potency, µM (series often up to 36.5 µM), for inactives: top-dose activity change, negative = inhibition, actives largely listed as inhibitors; actives 0.63% (n = 310,000); AID 720579, 2013; active = well fitted inhibition curve with a large enough effect; inconclusive = small, poorly fitted or top-dose-only effect; inactive = no such curve, though single readings can be large or run the other way; tested in A549 cells; further: nearly all actives have a fitted effect of over 35% in size; inactives centre near -10
The depositor's hits bear a star; i = inactive; ? = inconclusive; / = no result given; [ ] = dose if it differs, or a comment. On the % scale 0 is the no-effect control and ±100 the full control effect; potency means the concentration at half of the fitted maximal effect.

SMILES	Vaccinia Venus	VACV mCherry inh
CCCn1c(=O)c2[nH]cnc2n(-c2ccc(Cl)cc2)c1=O	-14%	?
CCOC(=O)Cn1c(=NC(=O)CC)sc2c(C)cc(C)cc21	-8%	i
CCOc1ccc(S(=O)(=O)N2CCC(C(=O)N3CCN(c4ccccc4F)CC3)CC2)cc1C	?	?
CCN(C(=O)CSc1nc2ccccc2n1Cc1cc(C)ccc1C)c1ccccc1	-13%	-14%
O=C(O)C(Cc1c[nH]c2ccccc12)NS(=O)(=O)c1ccc(Cl)cc1 (stereo not drawn)	-7%	-14%
CCc1ccc(-n2nc3cc(C)c(NC(=O)c4ccccc4C)cc3n2)cc1	-17%[7.34 µM]	-4%[7.34 µM]
O=C1CC[C@@H](CN(Cc2ccccn2)Cc2nc(Cc3ccccc3)no2)N1	-6%	-9%
CCCOc1cc(C)c(S(=O)(=O)NC2CC(C)(C)NC(C)(C)C2)cc1C	?	-28%
CCOc1ccc(CCNC(=O)c2c(C)oc3ncnc(N4CCOCC4)c23)cc1	-5%	-19%
COCCn1c(=S)[nH]c2cc(C(=O)N3CC(C)CC(C)C3)ccc2c1=O (stereo not drawn)	-10%	-11%
CNC(=O)[C@H](C)[C@@H]1C[C@@]1(C)[C@@H](NC(=O)OCc1ccccc1)c1ccccc1	-4%	i
COCCn1cnnc1SCC(=O)Nc1cc(C)on1	-8%	-11%
Cc1cccc(C(=O)N(Cc2ccc(C)o2)C2CCS(=O)(=O)C2)c1 (stereo not drawn)	-13%	i
CC(OC(=O)CC(NC(=O)c1ccccc1Cl)c1ccccc1)C(=O)Nc1cccc(Cl)c1Cl (stereo not drawn)	-10%	-15%
Cc1ccccc1/C=N/Nc1nc2ccccc2c(=O)n1O	0%	-6%
CCCc1oc(C(=O)O)cc1CN1CCOCC1	-4%	-11%
CCN(CC)S(=O)(=O)c1cccc(NC(=O)CNc2cccc(S(=O)(=O)N3CCOCC3)c2)c1	?	?
COc1ccc(OCCn2c(C)nc3cc(C)c(C)cc32)cc1	-17%	-19%
COc1ccnc(NCc2ccc(Cl)cc2)c1C#N	-14%	i
O=C(NCCc1ccc(Cl)cc1)C(=O)c1c[nH]c2ccccc12	-5%	i
N#C/C(=C\c1ccc(Cl)cc1Cl)c1n[nH]c(Cn2cncn2)n1	1%	/
CCCCCCCCN1C(=O)[C@H](CC(=O)NCCCCc2ccccc2)C[C@@]2(C(=O)OC)CCCCC=C12	-12%	-18%
O=[N+]([O-])c1ccc2c(c1)CCN2	-5%	-3%
Cc1nnc(Sc2c(-c3ccccc3)c3ccc(Cl)cc3[nH]c2=O)s1	-27%	-27%
O=C1NC2=C(C(=O)CCC2)C(c2ccccc2[N+](=O)[O-])N1 (stereo not drawn)	16%	-4%
COc1ccc(C(=O)Nc2ccc3[nH]ccc3c2)cc1	-25%	?
O=S(=O)(Cc1ccccc1)N1CCC(N2CCN(c3ccccc3)CC2)CC1	-12%	-15%
CCOC(=O)CN1N=C(c2ccc(Cl)s2)CSC1=O	-6%	-31%
COc1ccc(-c2ncncc2-c2ccc(OC)c(OC)c2)c(O)c1	-23%	i
O=C(NCCCN1CCOCC1)c1cc(-c2ccc(O)cc2)on1	-18%	i
CCCn1c(SCC(=O)Nc2ccc(Cl)cc2)n[nH]c1=O	-4%	i
CCOC(=O)c1c(NC(=O)COC(=O)c2ccc(S(=O)(=O)C(F)F)cc2)sc(C(=O)N(C)C)c1C	-17%	i
CCOc1ccc(C(=O)NC(C(=O)NCCc2ccc(OC(F)F)cc2)C(C)C)cc1 (stereo not drawn)	-9%	i
COC(=O)c1ccccc1SC1CC(=O)N(c2ccccc2)C1=O (stereo not drawn)	10%	0%
CCCC(=O)N1CCCC(c2cc(C(=O)NCc3ccc(F)cc3)no2)C1 (stereo not drawn)	7%	3%
CC(C)(C)C(=O)Nc1ccc(C(=O)NNC(=O)c2ccccc2)cc1	-6%	1%
O=C1N/C(=C/c2ccc(N3CCCC3)cc2)C(=O)N1c1ccccc1	-12%	-22%
COC(=O)c1sc2nc(CN3CCN(c4cccc(C(F)(F)F)c4)CC3)[nH]c(=O)c2c1C	6%	i
Cc1cccc(OCCCC(=O)O)c1C	-3%	-3%
CCc1ccc(OCC(=O)Nc2ncn[nH]2)c(Br)c1	-6%	-12%
COc1ccc(-c2cc(C(=O)N(C)CC(=O)Nc3ccccc3Cl)c3ccccc3n2)cc1OC	?	i
CCC(C)c1ccc(NC(=S)Nc2ccc(OC)cc2C)cc1 (stereo not drawn)	-9%	-22%
CCOc1ccc(S(=O)(=O)N(C)c2ccc(OCC(=O)NCC3CCCO3)cc2)cc1 (stereo not drawn)	-2%	-9%
O=S(=O)(Nc1ccc(C(F)(F)F)cc1)c1cnc[nH]1	-20%	i
COc1ccc(CCNC(=O)C2CCCN(S(C)(=O)=O)C2)cc1 (stereo not drawn)	-10%	i
O=C1C(Oc2ccccc2)C(c2cccs2)N1Cc1ccc2c(c1)OCO2 (stereo not drawn)	-5%	-18%
CC[N+](CC)=N/N=C1\C=CC[N+]([O-])=C1	-3%	-10%
COc1ccc(-c2noc(CSc3nnc(CCc4ccccc4)n3-c3ccccc3)n2)cc1OC	-25%	-15%
O=c1[nH]c(SCc2nc3ccccc3c(=O)n2-c2ccccc2C(F)(F)F)nc2ccccc12	-14%	-18%
COc1ccc(-c2nnc3ccc(SCC(=O)Nc4nccs4)nn23)cc1OC	-19%	-10%

Six records picked at random from the list so far, as already listed:
SMILES	Vaccinia Venus	VACV mCherry inh
O=[N+]([O-])c1ccc2c(c1)CCN2	-5%	-3%
CNC(=O)[C@H](C)[C@@H]1C[C@@]1(C)[C@@H](NC(=O)OCc1ccccc1)c1ccccc1	-4%	i
CCOC(=O)CN1N=C(c2ccc(Cl)s2)CSC1=O	-6%	-31%
O=c1[nH]c(SCc2nc3ccccc3c(=O)n2-c2ccccc2C(F)(F)F)nc2ccccc12	-14%	-18%
COc1ccc(-c2nnc3ccc(SCC(=O)Nc4nccs4)nn23)cc1OC	-19%	-10%
CC[N+](CC)=N/N=C1\C=CC[N+]([O-])=C1	-3%	-10%

(cont.)
SMILES	Vaccinia Venus	VACV mCherry inh
O=C(NCc1ccccc1Cl)c1ccc2c(=O)n(CC3CCCO3)c(=S)[nH]c2c1 (stereo not drawn)	-2%	9%
Cc1ccc(S(=O)(=O)N2CCCCC2)cc1C(=O)NCCc1ccccc1	-17%	-10%
O=C(NCc1cccs1)c1cc(-c2ccccc2)nc2ccccc12	-6%	i
COc1ccc(C(CC(=O)Nc2ccc(C)cc2)NC(=O)C(F)(F)F)cc1 (stereo not drawn)	7%	-14%
COc1ccc(C(=O)N2CCCC(c3nc(-c4ccc(OC)c(OC)c4)no3)C2)c(OC)c1 (stereo not drawn)	-22%	i
Cc1ccc(S(=O)(=O)c2ncccc2N)cc1	-20%	i
Cc1ccc2ccc(S(=O)(=O)n3nc(C)cc3C)cc2c1	-10%	-12%
CCCC(=O)N1CCN(c2ccc(NC(=O)c3ccccc3)cc2)CC1	-13%	-25%
COc1ccc(NC(=O)CSCC(=O)N2CCCc3ccccc32)cc1	-3%	-4%
CCCCn1nnnc1C(CCSC)N1CCC(n2c(=O)[nH]c3ccccc32)CC1 (stereo not drawn)	-2%	i
CCN(CC)CCCN(Cc1cc2cc3c(cc2[nH]c1=O)OCO3)C(=S)Nc1ccccc1	?	?
CCOC(=O)c1c(C)c(C#N)c2c3ccccc3ccn12	-1%	-8%
Cc1ccc(N2C(=O)c3[nH]nc(-c4ccc(Cl)cc4)c3C2c2ccc(F)cc2)cc1 (stereo not drawn)	-26%	?
Cn1c(=O)oc2cc(S(=O)(=O)N3CCC(C(=O)N4CCc5ccccc5C4)CC3)ccc21	-17%	i
COc1ccc(S(=O)(=O)NC(=O)C2(C)CCN2C(=O)CC2CCCCC2)cc1OC (stereo not drawn)	3%	9%
CCCNC(=O)CSc1ccc(S(=O)(=O)N2CCCCC2)cn1	-6%	i
COc1ccccc1CNC(=O)c1ccc2nc(CCc3ccccc3)oc2c1	-7%	-17%
O=C(COC(=O)/C=C/c1ccccc1)NCc1ccc(Cl)cc1	-4%	-12%
CCOC(=O)[C@H]1[C@H]2COc3cc(OC)ccc3[C@@H]2N2C(=O)c3ccc(F)cc3NC(=O)[C@@]12C	-13%	i
N/N=c1\sc2ccccc2n1-c1ccccc1	-5%	-13%
O=C(CNC(=O)Cc1ccccc1)NCc1cccc(C(F)(F)F)c1	6%	-12%
CCN(CC(=O)Nc1cc(OC)ccc1OC)Cc1nc2ccccc2c(=O)[nH]1	0%	-14%
C/C(=N\NC(=O)c1nnn(-c2nonc2N)c1-c1ccc2c(c1)OCO2)c1ccc(F)cc1	-6%	-15%
CCNc1nc(NCC)n2c(SCC(=O)Nc3ccccc3[N+](=O)[O-])nnc2n1	-8%	-6%
Cc1ccc2nsnc2c1S(=O)(=O)N1CCCC1C(=O)O (stereo not drawn)	2%	0%
O=C(Cc1ccc2c(c1)OCCO2)N1CCN(S(=O)(=O)c2ccccc2C(F)(F)F)CC1	-18%	-11%
Cn1c(CN2CCOCC2)nnc1SCC(=O)Nc1ccc([N+](=O)[O-])cc1O	-11%	-16%
O=C(CSc1ncnc2c1cnn2Cc1ccccc1)Nc1ccc2c(c1)OCCO2	-17%	/
C=CCn1c(N)c(C(=O)N2CCN(C)CC2)sc1=S	-16%	-14%
O=C(O)c1cc([N+](=O)[O-])ccc1NCCO	-3%	-10%
O=C(Cn1c(=O)oc2cc(S(=O)(=O)N3CCCC3)ccc21)N1CCN(c2ccccc2F)CC1	-20%	-18%
O=C(N/N=C/c1coc2ccccc2c1=O)c1ccccc1	-10%	-11%
CCN(CC)CCNC(=O)c1ccc2c(c1)ncn2C1CCCCC1	-17%	-10%[1.46 µM]
CC(=O)Nc1ccc(C=C(C(C)=O)C(C)=O)cc1	-16%	i
CC1SC(=S)N(c2ccc(N(C)C)cc2)C1=O (stereo not drawn)	-29%	11µM*
Nc1no[n+]([O-])c1-c1ccccc1	-9%	-16%
OCCC1CN(Cc2ccc3nsnc3c2)CCN1CCc1ccccc1 (stereo not drawn)	-13%	-5%
COc1ccc(OC)c(NC(=O)c2cc3ccccc3o2)c1	-7%	-18%
CCOC(=O)c1c(-c2ccc(C)cc2)csc1NC(=O)c1cc(=O)c2cc(C)ccc2o1	-9%	-10%
O=C(c1ccco1)N1CCN(C(=O)C2(S(=O)(=O)c3ccc(Cl)cc3)CC2)CC1	-6%	-6%

Entries shown so far that contain a cyano group (three):
SMILES	Vaccinia Venus	VACV mCherry inh
COc1ccnc(NCc2ccc(Cl)cc2)c1C#N	-14%	i
N#C/C(=C\c1ccc(Cl)cc1Cl)c1n[nH]c(Cn2cncn2)n1	1%	/
CCOC(=O)c1c(C)c(C#N)c2c3ccccc3ccn12	-1%	-8%

A run of entries from the list above, as a working copy:
SMILES	Vaccinia Venus	VACV mCherry inh
O=C(Cn1c(=O)oc2cc(S(=O)(=O)N3CCCC3)ccc21)N1CCN(c2ccccc2F)CC1	-20%	-18%
O=C(N/N=C/c1coc2ccccc2c1=O)c1ccccc1	-10%	-11%

(list continues)
SMILES	Vaccinia Venus	VACV mCherry inh
Nc1cc(Br)cc2c1[nH]c(=O)c1ccccc12	-7%	-3%
O=C(CSc1nnnn1Cc1ccccc1)Nc1cccc(F)c1	-12%	?
O=C(c1cccs1)N1CCN(c2ccc(Cl)cc2)CC1	-7%	-13%
COC(=O)C(NC(=O)CNS(=O)(=O)c1ccc(Br)cc1)c1ccccc1 (stereo not drawn)	-8%	-10%
CN(Cc1ccccc1)C(=O)CC(c1ccccc1)c1cc(Cl)ccc1O (stereo not drawn)	?	-22%
O=S(=O)(NC1CCCCC1)c1ccc(Cl)s1	-15%	-28%
Cc1cc(C(=O)COc2ccc(C#N)cc2)c(C)n1C1CC1	-4%	-8%
CCCC(=O)Nc1nc2nc(-c3ccccc3)cc(=O)n2[nH]1	-4%	i
COc1ccc2c(c1)c(CC(=O)NCc1cc([N+](=O)[O-])ccc1O)c(C)n2C(=O)c1ccc(Cl)cc1	-22%	-28%
O=C(CCS(=O)(=O)c1ccccc1)Nc1nnc(C(F)(F)F)s1	9%	i
COC(=O)C1=C(C)NC(=O)NC1c1ccco1 (stereo not drawn)	-9%	-1%
Cc1ccc(C2C(=O)N(C3CCCCCC3)CC(=O)N2C(C)C)cc1 (stereo not drawn)	-8%	-7%
CCN(CC)C(=O)/C(=C\c1cccc([N+](=O)[O-])c1)NC(=O)c1ccco1	-7%	-22%
Cc1cccc(C)c1NC(=O)C(c1ccccc1)n1c(=O)c(-c2ccco2)nc2ccccc21 (stereo not drawn)	0%	-28%
Cc1ccc(NC(=O)C2CCN(S(=O)(=O)c3ccc4[nH]c5c(c4c3)CCCCC5)CC2)cc1	-23%	-23%
COc1ccc2c(c1)[C@H]1[C@H](CO2)[C@H](c2ccccc2)[C@]2(C)C(=O)Nc3cc(F)c(F)cc3C(=O)N12	?	i
Cn1cc(S(=O)(=O)Nc2ccc(Cl)cc2Cl)c(=O)n(C)c1=O	-1%	-2%
CN1C/C(=N\S(=O)(=O)c2ccccc2)N(C)C1=O	-10%	i
COc1cccc(NC(=O)/C(C#N)=C\c2cn(Cc3ccc(C)cc3)c3ccccc23)c1	-15%	-20%
C=CCn1c(SCC(=O)c2ccc(O)c(O)c2)nnc1-c1ccc(C)cc1	-3%	?
COc1ccc(CC(=O)N2CCN(c3ccccc3OC)CC2)cc1OC	-10%	-2%
COc1ccc2nc(N3C(=O)CC(Cc4cc(C)cc(C)c4)C3=O)sc2c1 (stereo not drawn)	-11%	-26%
